Source: PubChem
T cruzi repl – blocks replication of Trypanosoma cruzi | T. cruzi beta-gal in NIH3T3, luminescence, 90 h | inhibition, % (concentration not given with the values) | actives 1.4% (n = 300,000);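 active = mean inhibition across valid replicates above about 55%, limit read from the data; inconclusive = mean below that limit but half or more replicates reach it; inactive = mean below it, under half of replicates reach it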;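 note: signal also drops with host cell toxicity which is not excluded here; 0% = plate median of DMSO wells and 100% = zero luminescence signal; higher percent means less beta-gal luminescence so fewer parasites; stock transfer was 50 nL into about 50 µL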
RanGTP-Impb inh – inhibitors of RanGTP-importin-beta interaction, primary screen, biochemical, FRET, CFP-Ran, YFP-importin-beta, homogeneous | inhibition, % (concentration not given with the values) | AID 2216 | cell-free CFP-Ran/YFP-importin-beta FRET ratio | actives 1.1% (n = 300,000);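 active = most replicates above 15%; inconclusive = exactly half above 15%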;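 note: 0% = DMSO wells and 100% = Ran loaded with GDP instead of GTP; wells of about 40 µL received 100 nL stock; the first replicate is given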
Vif A3G – inhibitors of Vif binding to APOBEC3G peptide, primary screen, biochemical, TR-FRET, GST-Vif 1-94, biotin-A3G peptide, dose response retest (AID 1117319). actives 0.57% (n = 260,000). TR-FRET GST-Vif / biotin-A3G peptide binding; higher % means a stronger effect; test concentration not given here; strong numbers were not always called active. inhibition, %; hits with a dose series show IC50 in µM;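 active = above the screen mean plus three standard deviations and confirmed in dose response; inconclusive = results disagree or hit not tested in dose response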;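 note: Vif residues 1-94 fused to GST binding biotinylated APOBEC3G peptide 110-148; 0% = full assay without inhibitor and 100% = GST in place of GST-Vif; retest series ran down from 100 µM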
Calb FLC – affects C. albicans growth with fluconazole; growth inhibition, % (no concentration beside the values); actives 0.57% (n = 300,000); C. albicans CaCi-2 (fluconazole-resistant clinical isolate) + fluconazole, Alamar Blue growth, 48 h;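 active = most replicates above 75%; inconclusive = exactly half above 75%; inactive = most below 75%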;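 note: all wells also contain fluconazole at 8 µg/ml as a sub-toxic cotreatment; 0% = median of DMSO wells and 100% = median of geldanamycin control wells; wells of about 8 µL received 7.5 nL stock; the first replicate is given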
Beta apoptosis – blocks beta cell apoptosis. INS-1E cytokine-induced death, ATP luminescence, 48 h; percent of positive-control rescue, neutral wells zero. protection from apoptosis, % (no concentration beside the values). actives 0.8% (n = 300,000). AID 435005;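 active = all replicates at 75% or more, or half of them and the mean; inconclusive = half reach 75% but not the mean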;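 note: 0% = cytokine-treated negative control wells and 100% = positive control rescue; higher means more ATP so stronger rescue from cytokine killing; wells of about 40 µL received 100 nL stock; the first replicate is given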
AF4-AF9 inh – inhibitors of human MLL-AF4/AF9 interaction. AlphaScreen, biotin-AF4 peptide binding to FLAG-AF9. actives 0.47% (n = 350,000). P42568. inhibition, % at 10 µM;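 active = every replicate reaching a set inhibition limit, whatever the replicate mean, cut at about 25% in these data; inconclusive = mean inhibition reaches that limit but some replicates miss it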;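 note: 0% = plate neutral control median and 100% = total signal loss; the record names both 10 and 1 µM as test concentration; the first replicate is given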
Target sequence (P42568 whole entry, looked up): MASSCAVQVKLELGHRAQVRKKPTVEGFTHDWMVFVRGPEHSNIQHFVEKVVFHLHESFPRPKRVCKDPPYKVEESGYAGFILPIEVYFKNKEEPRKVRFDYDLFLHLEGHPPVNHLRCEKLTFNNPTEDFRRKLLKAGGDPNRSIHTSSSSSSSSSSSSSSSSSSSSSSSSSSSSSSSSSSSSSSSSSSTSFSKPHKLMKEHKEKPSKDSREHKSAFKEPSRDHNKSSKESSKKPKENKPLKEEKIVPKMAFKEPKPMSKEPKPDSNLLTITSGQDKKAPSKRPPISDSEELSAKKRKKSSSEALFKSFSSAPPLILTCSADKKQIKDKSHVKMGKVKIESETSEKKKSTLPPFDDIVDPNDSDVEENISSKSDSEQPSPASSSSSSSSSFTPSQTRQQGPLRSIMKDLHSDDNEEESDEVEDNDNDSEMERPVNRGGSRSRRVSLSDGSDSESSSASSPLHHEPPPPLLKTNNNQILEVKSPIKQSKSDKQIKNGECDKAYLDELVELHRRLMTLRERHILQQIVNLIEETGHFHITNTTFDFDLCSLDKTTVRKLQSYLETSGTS
LANA-H2B inh – blocks KSHV LANA binding to histone H2A/H2B; Q9QR71; cell-free LANA-H2A/H2B peptide, fluorescence polarization; inhibition, % (test concentration not listed); actives 0.6% (n = 320,000); in the data active = inhibition mostly above about 10%, no sharp cut-off; inactive = mostly below about 6.7%;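 note: stock transfer was 7.5 nL into about 10 µL; 0% = median of vehicle wells and 100% = median of positive control wells; one replicate is shown; the record names a cut of 25% in any replicate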
Bfl-1 A1 inh – inhibitors of the anti-apoptotic protein A1, read as caspase activation; caspase activation, % (test concentration not listed); actives 0.066% (n = 330,000); MEF A1-2A-BIM cells, Caspase-Glo 3/7 luminescence, 3 h; percent of clofoctol response, vehicle zero;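 active = over half of replicate activation scores above 10%, or exactly half above 10 with the replicate mean above 10; inconclusive = replicate mean below 10 yet half the replicates above 10; inactive = over half of replicates below 10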;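 note: wells of about 30 µL received 50 nL stock; many hits fall short of the cut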
An asterisk follows results filed as active; i = inactive; ? = inconclusive; . = no result given; + = active, no number.

SMILES	T cruzi repl	RanGTP-Impb inh	Vif A3G	Calb FLC	Beta apoptosis	AF4-AF9 inh	LANA-H2B inh	Bfl-1 A1 inh
COc1cc2c(cc1OC)CN(C(=O)/C=C/c1cccs1)CC2	-23	0.1	-10%	-8	3	4.0	-0.4	0.5
COc1ccc(S(=O)(=O)N(C)CC(=O)NC2CCCCC2)cc1Cl	-17	1.7	3%	18	-1	.	-0.8	0.4
CC(=O)Nc1ccc(/C=N/NC(=O)c2cc(-c3ccco3)nc3ccccc23)cc1	-24	1.6	10%	-24	4	-73	3.3	-0.4
CCOc1ncccc1C(=O)Nc1ccc(-c2ccc3nnc(C)n3n2)cc1	-5	2.8	-116%	-11	2	5.0	0.1	1.1
Cc1[nH]nc2c1C(c1cccs1)C1=C(CC(C)(C)CC1=O)N2 (stereo not given)	8	1.6	2%	-11	1	0.1	-4.2	0.2
COc1cc(-c2nc3ccc(N4CCN(C)CC4)cc3[nH]2)cc(OC)c1OC	21	9.5	-3%	1	0	3.0	5.5	0.3
COc1ccc(/C=C/C(=O)OCC(=O)N2CCCC2)c(OC)c1	.	.	-19%	.	3	0.6	i	0.1
Cc1ccc(CN2C(=O)CSC2c2ccccc2F)cc1 (stereo not given)	12	-2.3	-5%	5	-1	-2.2	-3.4	-0.6
CCn1c(SCC(=O)Nc2ccc(F)cc2)nnc1-c1cnccn1	-8	1.9	.	-1	-8	-2.3	-4.8	0.6
CS(=O)(=O)NNC(=O)c1csc(Cc2c(Cl)sc3ccc(Cl)cc23)n1	11	5.9	-6%	3	1	-4.4	-5.1	0.0
O=C(NCc1ccccc1F)c1ccc2ccccc2n1	6	-0.8	.	2	-10	-5.1	-2.3	0.2
CC(NC(=O)CSc1nnc2n1CCCCC2)c1ccccc1Cl (stereo not given)	.	.	82%	.	-3	-1.0	3.2	-0.4
Cc1ccc(-c2cc(-c3cccs3)[nH]n2)c(O)c1	-6	2.0	7%	2	-3	.	-4.0	-1.2
O=C(CCCn1c(SCC(=O)Nc2ccccc2C(F)(F)F)nc2ccccc2c1=O)NCC1CCCO1 (stereo not given)	12	?	.	-4	0	-3.6	-3.2	-0.5
O=c1cc(CN2CCCCCC2)nc2sccn12	-19	8.2	22%	7	2	-2.9	+	-0.5
COc1cc2c(cc1OC)C(C(=O)NCCN1CCOCC1)C1c3ccccc3CCN1C2=O (stereo not given)	-11	1.2	2%	4	3	.	-0.1	1.3
O=C(O)/C=C/c1ccc(S(=O)(=O)N(CCO)CCO)cc1	-12	-1.2	6%	3	-1	-0.2	-0.4	0.5
CC(Oc1ccc(C(C)(C)C)cc1)C(=O)NC1CC(C)(C)NC(C)(C)C1 (stereo not given)	3	5.9	-6%	-12	-1	0.1	3.9	-0.2
CCOC(=O)c1c(C)[nH]c(C(=O)CN2C(=O)C(=O)N(CC(C)C)C2=O)c1C	-5	?	1%	0	-10	-1.8	-0.2	0.6
CCN(CC)CCCNC(=S)N1CCn2c(nc3ccccc32)C1	-30	6.6	.	1	11	.	-2.4	1.9
COc1ccc(N(C(=O)CNC(=O)c2cccs2)C(C(=O)NC2CCCC2)c2ccncc2)cc1 (stereo not given)	-4	4.1	.	6	-5	-1.8	6.0	0.3
Cc1cccc(NC(=O)N2CCCC2C(=O)NCc2cccs2)c1 (stereo not given)	-2	0.9	-1%	-11	0	.	-0.3	0.1
C/C(=N\NC(=O)c1ccncc1)c1cc2ccccc2o1	17	8.2	2%	-2	0	-0.4	-2.0	-0.1
Cn1c(CO)cnc1SCC(=O)c1ccc(F)cc1	5	?	3%	1	1	-0.6	0.6	-1.5
COC(=O)CN(C(=S)Nc1ccc(Cl)cc1)C1CC(=O)N(c2ccc(OC)cc2)C1=O (stereo not given)	2	-0.8	6%	-10	-2	.	-3.5	0.2
COc1ccc(NS(=O)(=O)c2cc(OC)ccc2NC(=O)c2cc(C)oc2C)cc1	7	2.5	10%	-3	10	.	0.3	-0.6
Cc1cc(NC(=O)CCC(=O)N(CCC(C)C)C(C(=O)NC2CCCC2)c2cccnc2)no1 (stereo not given)	1	5.5	80%	0	-1	.	-1.0	-0.2
NS(=O)(=O)c1cccc(NC(=O)c2cccc(N3C(=O)c4ccccc4C3=O)c2)c1	.	.	-7%	.	0	-2.1	-0.1	-0.2
O=C(Nc1ccc(Cc2ccncc2)cc1)C1CCC(N2C(=O)C3CCCCC3C2=O)CC1 (stereo not given)	5	1.0	10%	-11	9	-1.9	-3.9	-0.1
COc1ccc(CCNC(=O)CSc2ccc(-c3ccco3)nn2)cc1OC	4	0.6	21%	34	-7	-0.7	-0.4	0.1
COc1ccc(/C=N/N2C(=O)C3C4C=CC(C4)C3C2=O)cc1[N+](=O)[O-] (stereo not given)	-3	0.2	2%	4	0	-2.3	-5.3	0.3
Cc1ccc(C(=O)N2CCN(c3ncccn3)CC2)c(C)c1	-16	1.0	.	-4	-8	-4.1	-0.6	0.7
COc1ccccc1-c1c(C(F)(F)F)oc2cc(OCC(=O)Nc3ccccc3C(F)(F)F)ccc2c1=O	10	-1.5	.	?	3	.	-1.2	-0.6
CC1=NN(c2ccccc2)C(=O)C1N=Nc1ccc(S(N)(=O)=O)cc1 (stereo not given)	?	6.8	4%	-9	-10	-3.4	-2.5	-0.2
Cc1ccc(-c2nnn(CC(=O)N3CCN(c4ccccc4)CC3)n2)o1	4	4.7	0%	6	-4	-5.8	-2.4	1.0
O=C(CSc1nnnn1-c1ccccc1)NC(=O)Nc1ccc2c(c1)OCCO2	-23	1.8	-5%	-20	.	.	0.2	-0.5
CCCCC1=CC2=CC(=O)C(C)(OC(=O)c3cccs3)C(=O)C2=CO1 (stereo not given)	-11	-8.7	.	4	0	1.4	7.7	0.1
Cc1ccc(Oc2ccccc2/C=C2\SC(=O)N(C)C2=O)cc1	32	4.7	5%	16	4	.	-2.6	0.6
c1ccc(C2[C@H]3CN(Cc4cccnc4)[C@H](c4ccccc4)C34CC2(c2ccccc2)C4)cc1 (stereo not given in full)	36	-3.8	.	-7	9	3.6	2.1	0.2
COc1ccc2c(ccc[n+]2CC(=O)c2ccccc2)c1	45	-3.8	.	-2	-7	1.7	-1.7	0.9
CC(=O)NN1C(=O)/C(=C\c2ccc(C)cc2)SC1=S	2	?	-1%	?	-3	.	6.1	-0.2
CCOC(=O)/C(C#N)=C1/SC(CCO)C(=O)N1c1ccccc1 (stereo not given)	-3	-1.2	4%	1	-4	.	-1.0	0.6
COc1cc(NC(=O)C2CCCCN2)ccc1OCC(C)C (stereo not given)	-1	5.7	?	-13	-1	.	2.6	0.3
CCOC(=O)N1CCN(C(=O)Cn2c(=O)sc3ccccc32)CC1	-3	-2.1	-2%	-6	0	.	-2.1	-0.5
COCCOC(=O)c1c(C)oc2ccc(NS(=O)(=O)c3ccc(C(=O)O)cc3)cc12	-13	0.5	9%	3	-8	.	-1.0	1.1

3 compounds from above with just AF4-AF9 inh, RanGTP-Impb inh and LANA-H2B inh:
mol,AF4-AF9 inh,RanGTP-Impb inh,LANA-H2B inh
COc1ccc2c(ccc[n+]2CC(=O)c2ccccc2)c1,1.7,-3.8,-1.7
CC(=O)NN1C(=O)/C(=C\c2ccc(C)cc2)SC1=S,.,?,6.1
CCOC(=O)/C(C#N)=C1/SC(CCO)C(=O)N1c1ccccc1 (stereo not given),.,-1.2,-1.0

(more compounds)
SMILES	T cruzi repl	RanGTP-Impb inh	Vif A3G	Calb FLC	Beta apoptosis	AF4-AF9 inh	LANA-H2B inh	Bfl-1 A1 inh
CCC1(CC)C(=O)NC(=O)NC1=NCCc1ccc(O)cc1	-4	-1.2	66%	-2	-6	.	2.1	-0.1
CCN1CCN(c2ccccc2NC(=O)C(C)Oc2ccc(C(C)=O)cc2)CC1 (stereo not given)	.	.	2%	.	-2	-1.0	6.9	-0.3
CCn1cc(Br)c(C(=O)Nc2cccc(Cl)c2)n1	10	2.1	6%	0	3	.	0.5	-0.2
COc1ccc(NC(=O)CSc2cccc3cccnc23)c(OC)c1	2	-1.6	.	-19	-5	-2.5	0.3	0.4
CCOc1ccc(NC(=O)CC2C(=O)N(c3cccc(OC)c3)C(=O)N2C(C)C)cc1 (stereo not given)	-13	?	1%	-2	-1	-4.6	2.4	0.7
CCc1nn2c(=O)cc(COc3ccc(/C=C4\C(=N)N5N=C(C)SC5=NC4=O)cc3)nc2s1	-16	-0.7	-6%	8	1	-2.2	3.4	0.1
COc1ccc2[nH]c(O)c(NC(C)=O)c2c1	-7	1.0	-2%	-2	7	.	6.6	0.3
Cc1ccc(NC(=S)NCc2ccccc2Cl)c(C)c1	8	-0.9	?	-8	7	-5.5	1.2	-0.1
CSCCC(Nc1ccc(S(=O)(=O)N2CCOCC2)cc1[N+](=O)[O-])C(=O)OCC(=O)N(C(C)C)C(C)C (stereo not given)	-5	-2.9	30%	-26	0	9.6	3.1	?
CC(/C=C/c1ccc(N(C)C)cc1)=N\N=C1\NC(=O)CC(C(=O)Nc2ccccc2)S1 (stereo not given)	9	-1.7	.	-4	10	13	-6.6	-0.9
Nc1ccc(S(=O)(=O)c2ccccc2)nc1	-4	-0.9	-8%	-1	-6	-0.4	-1.6	0.8
O=C(COC(=O)Cc1ccc(S(=O)(=O)N2CCOCC2)s1)NCCc1ccccc1	-3	-4.6	1%	11	-3	.	-1.8	-0.1
CC1(C)Cc2c(sc3c2c(=N)n(Cc2ccco2)c(=O)n3Cc2ccc(Cl)cc2)CO1	20	3.8	-13%	-12	15	.	-12	1.1
COc1ccc(-c2cc3c(=O)n(CC(=O)NCCCN4CCC(Cc5ccccc5)CC4)ncn3n2)cc1	24	-2.2	-12%	0	43	2.6	-5.0	-0.8
O=C(Nc1ccc(O)cc1)c1ccc(C(=O)c2ccccc2)o1	-5	3.6	32%	-10	2	.	-7.0	-1.9
C=CCOc1ccc(/C=C/C(=O)OCC(=O)N(C)CC(=O)Nc2ccc(F)cc2)cc1	-1	.	-3%	1	-2	-0.7	5.1	-0.1
CCN(CC)S(=O)(=O)c1cccc(-c2nnc(SCC(N)=O)n2CCc2ccccc2)c1	5	6.7	19%	2	-5	.	-2.2	0.4
O=C(/C=C/c1ccccc1)NNC(=O)c1cccc(Cl)c1	8	0.9	0%	0	-13	.	-0.7	0.6
C=CCN1C2CCCC1CC(NC(=S)Nc1cccc(OC)c1)C2 (stereo not given)	-22	-0.6	18%	?	-6	4.1	-3.1	1.6
Cc1ccc(S(=O)(=O)CC(=O)N2CCCC2)cc1	.	.	14%	6	-6	.	-3.3	0.2
CCOc1ccc(NC(=NCc2ccc3c(c2)OCO3)SC2CC(=O)N(c3ccc(OCC)cc3)C2=O)cc1 (stereo not given)	16	3.9	3%	-1	19	.	0.0	-1.3
Cc1cc(Cl)c(S(N)(=O)=O)cc1OCC(=O)NC1CCCCC1	6	-3.6	.	-6	-5	0.3	-0.6	0.8
N#CCCN(Cc1ccccc1)C(=O)Nc1ccccc1	-5	2.8	0%	-10	.	-5.7	2.1	0.1
CCCCC(=O)Nc1cc(-c2nc3ncccc3o2)ccc1C	-10	0.5	-2%	40	0	0.3	-2.2	0.1
